# Assay outcomes from PubChem BioAssay.
# PKD1 inh = blocks activity of human protein kinase D1; Q15139; PKD1 kinase fluorescence polarization assay; inhibition, %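 (about 10 µM by stock and volumes)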; actives 0.056% (n = 200,000);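 active = inhibition of 50% or more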;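 also: controls were vehicle for no effect and a reference inhibitor for full effect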
# Target sequence (Q15139 whole entry, looked up): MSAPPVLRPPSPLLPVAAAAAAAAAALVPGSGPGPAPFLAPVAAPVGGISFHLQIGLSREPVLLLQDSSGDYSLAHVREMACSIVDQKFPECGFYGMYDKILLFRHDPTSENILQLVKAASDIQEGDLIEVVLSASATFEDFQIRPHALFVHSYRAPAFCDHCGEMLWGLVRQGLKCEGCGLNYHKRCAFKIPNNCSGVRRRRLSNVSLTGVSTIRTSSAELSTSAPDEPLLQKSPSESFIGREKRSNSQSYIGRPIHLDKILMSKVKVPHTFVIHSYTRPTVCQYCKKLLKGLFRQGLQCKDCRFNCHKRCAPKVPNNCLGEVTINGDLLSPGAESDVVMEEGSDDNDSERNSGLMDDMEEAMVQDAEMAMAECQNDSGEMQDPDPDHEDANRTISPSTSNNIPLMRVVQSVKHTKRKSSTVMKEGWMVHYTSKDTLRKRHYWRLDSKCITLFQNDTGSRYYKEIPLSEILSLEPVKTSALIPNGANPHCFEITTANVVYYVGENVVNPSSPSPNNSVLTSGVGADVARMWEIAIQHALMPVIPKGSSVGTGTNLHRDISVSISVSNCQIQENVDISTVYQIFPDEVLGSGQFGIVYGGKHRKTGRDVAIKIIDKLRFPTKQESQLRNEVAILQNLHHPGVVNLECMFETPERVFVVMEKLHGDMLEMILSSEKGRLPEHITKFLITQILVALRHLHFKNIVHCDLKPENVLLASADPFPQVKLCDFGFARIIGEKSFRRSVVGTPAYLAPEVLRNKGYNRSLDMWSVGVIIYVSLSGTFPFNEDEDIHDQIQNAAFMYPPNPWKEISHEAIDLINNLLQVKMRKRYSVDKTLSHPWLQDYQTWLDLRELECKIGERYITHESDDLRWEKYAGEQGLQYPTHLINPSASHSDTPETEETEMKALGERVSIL
# HSV replic up = increases HSV replication in cells; HSV replication augmentation in cells, fold increase; maximum fold increase; actives 0.005% (n = 220,000);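 active = peak rise of 1.5-fold or more in the series; tested in PC3 cells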;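 also: first round at 10 µM; read as green reporter fluorescence; hits show the peak of a series up to 25 µM; 1 = signal of infected wells without compound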
# INS promoter inh = TRM-6 insulin promoter activity inhibition. AID 1273. TRM-6 cells (human fetal islet line), insulin promoter-eGFP reporter, imaging; reporter expression induced with tamoxifen. inhibition, % at 2 µM. actives 0.9% (n = 130,000);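 active = inhibition above the mean plus 3 SD, with well images judged a real hit on visual review, cut at about 60% in these data, passing the limit was not always enough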
# GALR2 ag = activates the human galanin receptor 2; AID 803; GALR2-expressing cells, agonist activation read-out; activation, %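 (tested at 5 µM)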; actives 0.48% (n = 140,000); O43603;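 active = above mean plus 3 SD of all compounds, about 5% in these data, not always enough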;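 also: 0% = vehicle buffer wells and 100% = reference agonist at full effect; tested in CHO reporter cells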
# RGS16-Gao HTS = regulators of human RGS16-Galphao interaction; O15492+P09471; actives 0.38% (n = 220,000); binding response (% of control), % at 10 µM; bead-based flow cytometry RGS16-Galphao binding, fluorescence; actives lie on both sides;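 active = below 25% or above 175%, edge rows of some plates excepted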;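 also: Galphao activated by GDP with aluminum fluoride before binding; 100% = wells without compound and 0% = beads without RGS; some results beyond the cut were filed as inactive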
# INS promoter inh cell count = recorded beside INS promoter inh, whose call it bears; normalized cell count, %; measured here: cell count, toxicity; reference of the scale not given here;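 cells exposed to compound for 48 h; stained nuclei by imaging scaled within each plate; lower means fewer cells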
# HSV replic up primary fold = recorded beside HSV replic up, whose call it bears; fold increase; compound at 10 µM; measured here: primary screen fold increase 10 uM; tested in PC3 cells;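 GFP signal in the first replicate; 1 = infected wells without compound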
# An asterisk follows results filed as active; i = inactive; nt = no result given. Only part of the results is shown; rates above refer to the full screens.
SMILES,PKD1 inh,HSV replic up,HSV replic up primary fold,INS promoter inh,INS promoter inh cell count,GALR2 ag,RGS16-Gao HTS
CCOC(=O)c1ccc(NC(=O)C2C3C=CC(O3)C2C(=O)O)cc1 (configuration not stated),-10,i,1.1,nt,nt,-2.1,103
CN=C(SCC(=O)c1cccc(Cl)c1)c1c(O)n(C)c(=O)n(C)c1=O,nt,i,1,nt,nt,nt,102
CCOC(=O)C(=O)NC1CCSC1=O (configuration not stated),-7,i,0.76,50,161,-1.7,107
COc1cccc(CN2CCCCC2c2cccnc2)c1 (configuration not stated),1,i,0.91,nt,nt,-1.6,103
Cc1ccc(-n2c(O)c(C=NCCN3CCOCC3)c(=O)[nH]c2=O)cc1,-1,i,0.94,-32,29,-1.4,98
CN(C)CCN=Cc1c(O)n(CCC2=CCCCC2)c(=O)[nH]c1=O,-1,i,1.1,nt,nt,-0.9,104
O=c1[nH]c(=O)n(Cc2ccccc2)c(O)c1C=NCCCn1ccnc1,-3,i,1,nt,nt,-1.9,103
CC(C)[C@@]1(NC(=O)[C@@H]2C[C@@H]3c4cccc5[nH]cc(c45)C[C@H]3N(C)C2)O[C@@]2(O)[C@@H]3CCCN3C(=O)[C@H](Cc3ccccc3)N2C1=O,2,i,0.95,0,85,0.8,74
COc1ccc(NC2(C#N)CCCCC2)cc1,-8,i,0.78,-24,138,nt,119
CCC(C)C12CN3CCN(CC(C)(C3)C1=O)C2 (configuration not stated),1,i,0.99,-3,147,-2.0,103
CP(C)(=O)CCC(=O)O,2,i,0.94,14,226,-1.5,92
NC(=O)Nc1ccc(C(=O)OCC(=O)Nc2ccc(Cl)cc2C(=O)c2ccccc2)cc1,-12,i,0.95,33,115,0.2,109
C=C1N2CCC(CC2)C1(O)c1ccc(C)c(C)c1 (configuration not stated),-2,i,1.1,30,115,-2.4,101
CC(CN1CCOCC1)OC(=O)Cc1ccccc1 (configuration not stated),-3,i,0.94,nt,nt,nt,100
O=C1NC(=O)N(c2ccc(F)cc2)C(=O)/C1=C/c1ccc(N2CCOCC2)cc1,-3,i,0.93,-43,125,nt,97
N[C@@H](Cc1c[nH]c2ccccc12)c1nnc(SCc2ccccc2F)o1,-6,i,0.78,24,110,-2.6,114
O=P(Nc1cccc(Cl)c1)(Oc1ccccc1)Oc1ccccc1,-9,i,1,-18,122,nt,96
Cc1ccc2c(c1Cl)NC(C(=O)O)C1CC(Sc3ccccc3[N+](=O)[O-])C(Cl)C21 (configuration not stated),nt,i,1,nt,nt,nt,95
CC1=C(C(=O)N2CCC3(CC2)OCCO3)C2(CCC(C)CC2)OC1=O (configuration not stated),-1,i,0.75,73*,79*,-1.1,91
CCC(N)Cc1c[nH]c2ccccc12 (configuration not stated),nt,i,0.79,nt,nt,nt,105
CCC(=NCc1ccco1)c1c(O)n(-c2ccccc2C)c(=O)[nH]c1=O,nt,i,1.1,nt,nt,nt,101
COc1cc(N2CCOCC2)ccc1/C=C1\C(=O)NC(=O)N(Cc2cccs2)C1=O,-3,i,1,0,137,nt,99
CNP(=O)(Oc1ccccc1)OC12CC3CC(CC(C3)C1)C2 (configuration not stated),-4,i,1.1,-12,107,nt,100
Cc1cccc(NC(=S)N2CC3CC(C2)c2cccc(=O)n2C3)c1C (configuration not stated),1,i,1,-16,77,-0.5,105
CCn1c(C)c(C(=O)O)c2cc(OC)ccc21,-12,i,0.98,-6,96,-0.9,99
CC(=NCc1cccnc1)c1c(O)n(Cc2ccccc2)c(=O)[nH]c1=O,1,i,0.97,0,119,1.1,100
Cc1c(N=Nc2c(O)[nH]c(=S)[nH]c2=O)c(=O)n(-c2ccccc2)n1C,-7,i,1.1,nt,nt,-0.7,105
C=C(C)c1cccc(C(C)(C)NC(=O)NC2CN3CCC2CC3)c1 (configuration not stated),1,i,0.87,nt,nt,-0.2,103
CCOC(=O)c1c(-c2ccc(OC)cc2)oc2ccc(OC(=O)N(C)C)cc12,8,i,0.75,nt,nt,0.1,104
Cc1[nH]c2ccccc2c1C(=O)CN1CC=C(c2ccccc2)CC1,-9,i,1,28,83,-3.3,103
CC(C(=O)Nc1ccc(Br)cc1C(=O)c1ccccc1)N1CCOCC1 (configuration not stated),-2,i,1,-20,63,-1.9,56
CN1C(=O)C(C2c3ccccc3C(=O)N2Cc2ccc([N+](=O)[O-])cc2)C(=O)N(C)C1=O (configuration not stated),1,nt,nt,-11,165,-1.5,99
Cc1cc(C)cc(N2C(=O)NC(=O)/C(=C\c3cccn3-c3ccc(Cl)cc3)C2=O)c1,-6,i,0.94,nt,nt,-2.6,92
COc1cccc(OC)c1C(=O)Nc1nc(N)n(-c2ccccc2)n1,-6,i,1.1,37,101,0.1,89
CCC(=O)CC(c1ccc([N+](=O)[O-])cc1)c1c(O)c2ccccc2oc1=O (configuration not stated),5,i,1.1,nt,nt,-1.4,97
Cc1ccc(Cl)cc1N1CCN(CCN)CC1,-11,i,0.85,-12,133,-1.3,104
COc1ccc(C(=O)C2CCCN(Cc3cnc(C)s3)C2)cc1OC (configuration not stated),3,i,1.2,nt,nt,nt,103
CC1(C)C(c2ccccc2)=NC(c2cccnc2)N1O (configuration not stated),4,i,0.85,-18,191,-0.1,96
C/C(CCc1c[nH]c2ccccc12)=N\O,1,i,1.2,13,70,-2.4,101
COc1ccccc1N1C(=O)NC(=O)C2(Cc3cc(C)ccc3N(C)C2)C1=O (configuration not stated),3,i,0.88,13,57,-1.8,92

# 4 consecutive compounds out of the list so far:
SMILES,PKD1 inh,HSV replic up,HSV replic up primary fold,INS promoter inh,INS promoter inh cell count,GALR2 ag,RGS16-Gao HTS
COc1ccc(C(=O)C2CCCN(Cc3cnc(C)s3)C2)cc1OC (configuration not stated),3,i,1.2,nt,nt,nt,103
CC1(C)C(c2ccccc2)=NC(c2cccnc2)N1O (configuration not stated),4,i,0.85,-18,191,-0.1,96
C/C(CCc1c[nH]c2ccccc12)=N\O,1,i,1.2,13,70,-2.4,101
COc1ccccc1N1C(=O)NC(=O)C2(Cc3cc(C)ccc3N(C)C2)C1=O (configuration not stated),3,i,0.88,13,57,-1.8,92

# (continued)
SMILES,PKD1 inh,HSV replic up,HSV replic up primary fold,INS promoter inh,INS promoter inh cell count,GALR2 ag,RGS16-Gao HTS
CN(C)CC#CCOCCOCCC#N,0,i,0.96,17,76,-2.4,108
O=c1[nH]c(=O)n(Cc2ccccc2)c(O)c1/C=N/NCCO,nt,i,1,nt,nt,nt,98
C=CCn1c(O)c(C(C)=NCCN2CCCCC2)c(=O)[nH]c1=O,-4,i,0.62,-9,38,-0.6,105
CC1CN(c2ccc([N+](=O)[O-])c3cccnc23)CC(C)N1 (configuration not stated),-7,i,0.89,-29,120,-0.1,96
CCCC(=O)NC(Oc1ccccc1Cl)C(Cl)(Cl)Cl (configuration not stated),-3,i,0.96,nt,nt,-2.9,106
Cc1nc2c(c(C)nn2-c2ccccc2)c(C)c1CCC(=O)N1CCC2(CC1)OCCO2,2,i,0.91,8,85,-0.1,96
CCOC(=O)C1(CCc2ccccc2)CCN(Cc2csc(C(C)=O)c2)CC1,-7,i,0.89,nt,nt,nt,101
CC(C)CN1CCN(Cc2ccccc2C(F)(F)F)CC1CCO (configuration not stated),12,i,0.89,nt,nt,nt,112
FC(F)(F)c1ccc2c(c1)N(CCCN1CCN(CCCl)CC1)c1ccccc1S2,-3,i,0.71,-24,81,-2.3,100
Cn1c(O)c(C2=NN(C(=O)CCl)C(c3ccccc3)C2)c(=O)n(C)c1=O (configuration not stated),nt,i,0.86,nt,nt,nt,100
CC(=O)NCC(=O)Nc1ccc(Br)cc1C(=O)c1ccccc1,nt,i,1,nt,nt,nt,99
CCN(CC)c1ccc(N=Cc2c(O)n(CCC3=CCCCC3)c(=O)[nH]c2=O)cc1,-21,nt,nt,64,93,-1.6,100
C=CCn1c(O)c(/C=N/N2CCCCC2)c(=O)[nH]c1=O,nt,i,1.1,nt,nt,nt,109
C=CCN(CC#CCOc1ccccc1OC)CC=C,-4,i,0.96,nt,nt,nt,101
O=c1[nH]c(=O)n(-c2cccc(Cl)c2)c(O)c1C=NCCCN1CCOCC1,-16,i,0.98,nt,nt,-1.7,95
O=C(c1ccncc1)C12CN3CN(CN(C3)C1)C2,-10,nt,nt,-15,53,0.4,97
CCOc1ccc(N=Cc2c(O)n(Cc3ccccc3)c(=S)[nH]c2=O)cc1,nt,i,1.2,nt,nt,nt,110
COc1ccc(OC)c(CC(=O)O)c1,11,i,0.99,14,107,-3.9,95
O=C1NC(=O)C2(Cc3ccccc3N3CCOCC32)C(=O)N1c1ccccc1 (configuration not stated),3,i,0.96,41,38,-0.6,103
O=C(N/N=C/c1c(O)n(Cc2ccc(F)cc2)c(=S)[nH]c1=O)c1ccncc1,nt,i,1.3,nt,nt,nt,110
c1ccc(C2NCCc3[nH]cnc32)cc1 (configuration not stated),nt,i,1,nt,nt,nt,101
O=c1[nH]c(=S)n(Cc2ccc(F)cc2)c(O)c1C=NCc1cccnc1,-9,i,1,3,18,-0.4,102
CC1CCN(C(=O)CCl)CC1,-2,i,1.1,38,107,-1.3,100
COc1ccc(CCn2c(O)c(C=NCc3cccnc3)c(=O)[nH]c2=O)cc1OC,5,i,0.83,27,172,0.9,106
CCC(=O)c1c(O)n(C2CCCCCC2)c(=O)[nH]c1=O,-8,i,1.1,-18,78,-0.8,71
CCCCNc1ccncc1S(=O)(=O)NC(=O)NC(C)C,-11,i,1,-262,82,-1.2,108
CCCCn1c(O)c(C(C)=NCc2ccc3c(c2)OCO3)c(=O)[nH]c1=O,nt,i,0.99,nt,nt,nt,102
CCOC(=O)c1ccc2[nH]c(-c3ccc(S(=O)(=O)F)cc3)cc(=O)c2c1,nt,i,0.85,nt,nt,nt,95
O=C1NC(=O)C(CCc2ccncc2)(CCc2ccncc2)C(=O)N1CCc1ccccc1,1,i,0.98,nt,nt,nt,93
CCCC(CCC)C(=O)OC[N+](C)(C)CCOC(=O)C(O)(c1ccccc1)C1CCCC1 (configuration not stated),0,i,0.97,17,87,nt,94

# A different layout for part of the listing above:
Structure	PKD1 inh	HSV replic up	HSV replic up primary fold	INS promoter inh	INS promoter inh cell count	GALR2 ag	RGS16-Gao HTS
CCCCn1c(O)c(C(C)=NCc2ccc3c(c2)OCO3)c(=O)[nH]c1=O	nt	i	0.99	nt	nt	nt	102
CCOC(=O)c1ccc2[nH]c(-c3ccc(S(=O)(=O)F)cc3)cc(=O)c2c1	nt	i	0.85	nt	nt	nt	95
O=C1NC(=O)C(CCc2ccncc2)(CCc2ccncc2)C(=O)N1CCc1ccccc1	1	i	0.98	nt	nt	nt	93

# Some of the entries above in another layout:
canonical_smiles	PKD1 inh	HSV replic up	HSV replic up primary fold	INS promoter inh	INS promoter inh cell count	GALR2 ag	RGS16-Gao HTS
c1ccc(C2NCCc3[nH]cnc32)cc1 (configuration not stated)	nt	i	1	nt	nt	nt	101
O=C1NC(=O)C(CCc2ccncc2)(CCc2ccncc2)C(=O)N1CCc1ccccc1	1	i	0.98	nt	nt	nt	93
CC1CCN(C(=O)CCl)CC1	-2	i	1.1	38	107	-1.3	100
CCOC(=O)c1ccc2[nH]c(-c3ccc(S(=O)(=O)F)cc3)cc(=O)c2c1	nt	i	0.85	nt	nt	nt	95

# More entries
SMILES,PKD1 inh,HSV replic up,HSV replic up primary fold,INS promoter inh,INS promoter inh cell count,GALR2 ag,RGS16-Gao HTS
OCCN(CC#CC(O)(c1ccccc1)C1CCCC1)CCO (configuration not stated),3,i,0.97,nt,nt,-1.6,107
O=C(c1ccco1)c1cn(Cc2ccc(Cl)cc2)c2ccccc12,-9,i,0.86,-19,106,-1.9,101
Cn1c(O)c(C=NCc2cccs2)c(=O)n(C)c1=O,10,i,0.9,nt,nt,-1.8,98
C=CC(C)C(C(=O)c1ccccc1)N(C)C (configuration not stated),-6,i,1,-7,103,nt,111
CC(=O)NC(C)Cc1ccccc1 (configuration not stated),-1,i,0.99,-19,70,-0.6,99
O=C(CF)NC(Nc1cccc2cccnc12)C(Cl)(Cl)Cl (configuration not stated),0,i,0.86,23,71,1.3,82
